ALR inh = inhibitors of human sulfhydryl oxidase ALR. P55789. purified ALR, DTT oxidation, H2O2 HRP-luminol luminescence. inhibition, % (no concentration beside the values). hit rate 3.8% among 290,000. AID 485317;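 active = mean and each replicate at 75% or more; inconclusive = only one of the two met; inactive = neither met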;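 also: stock transfer was 7.5 nL into about 7.5 µL; 0% = neutral wells and 100% = wells with inactivated enzyme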
Target sequence (P55789 whole entry, looked up): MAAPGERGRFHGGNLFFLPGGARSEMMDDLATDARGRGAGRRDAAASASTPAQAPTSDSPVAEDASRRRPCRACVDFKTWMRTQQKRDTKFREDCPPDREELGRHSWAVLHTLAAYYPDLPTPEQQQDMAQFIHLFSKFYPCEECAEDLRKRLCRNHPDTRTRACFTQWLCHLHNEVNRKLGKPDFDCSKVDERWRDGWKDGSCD
Vif TR-FRET = HIV-1 Vif–A3G interaction blockers – biochemical, TR-FRET, GST-Vif 1-94, biotin-A3G peptide, dose response retest, primary screen (AID 1117319); TR-FRET GST-Vif / biotin-A3G peptide binding; higher % means a stronger effect; test concentration not given here; strong numbers were not always called active; one-dose inhibition, %; IC50 in µM for titrated hits; hit rate 0.57% among 260,000;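 active = above the screen mean plus three standard deviations and confirmed in dose response; inconclusive = results disagree or hit not tested in dose response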;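 also: Vif residues 1-94 fused to GST binding biotinylated APOBEC3G peptide 110-148; 0% = full assay without inhibitor and 100% = GST in place of GST-Vif; retest series ran down from 100 µM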
Ecoli growth = E. coli growth inhibition; hit rate 0.21% among 330,000; OD600 absorbance (no concentration beside the values); AID 1053175; Escherichia coli growth, OD600, 23 h; active compounds read low;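 active = OD600 absorbance below the run mean of sample wells minus 3.6 SD, in any replicate, cut at about 0.56 in these data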;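 also: stock transfer was 300 nL into about 60 µL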
AF4-AF9 inh = blocks AF4 peptide binding to human AF9 | hit rate 0.47% among 350,000 | inhibition, % at 10 µM | AID 651704 | P42568 | AlphaScreen, biotin-AF4 peptide binding to FLAG-AF9;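 active = every replicate reaching a set inhibition limit, whatever the replicate mean, cut at about 25% in these data; inconclusive = mean inhibition reaches that limit but some replicates miss it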;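 also: 0% = plate neutral control median and 100% = total signal loss; the record names both 10 and 1 µM as test concentration; the first replicate is given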
Target sequence (P42568 whole entry, looked up): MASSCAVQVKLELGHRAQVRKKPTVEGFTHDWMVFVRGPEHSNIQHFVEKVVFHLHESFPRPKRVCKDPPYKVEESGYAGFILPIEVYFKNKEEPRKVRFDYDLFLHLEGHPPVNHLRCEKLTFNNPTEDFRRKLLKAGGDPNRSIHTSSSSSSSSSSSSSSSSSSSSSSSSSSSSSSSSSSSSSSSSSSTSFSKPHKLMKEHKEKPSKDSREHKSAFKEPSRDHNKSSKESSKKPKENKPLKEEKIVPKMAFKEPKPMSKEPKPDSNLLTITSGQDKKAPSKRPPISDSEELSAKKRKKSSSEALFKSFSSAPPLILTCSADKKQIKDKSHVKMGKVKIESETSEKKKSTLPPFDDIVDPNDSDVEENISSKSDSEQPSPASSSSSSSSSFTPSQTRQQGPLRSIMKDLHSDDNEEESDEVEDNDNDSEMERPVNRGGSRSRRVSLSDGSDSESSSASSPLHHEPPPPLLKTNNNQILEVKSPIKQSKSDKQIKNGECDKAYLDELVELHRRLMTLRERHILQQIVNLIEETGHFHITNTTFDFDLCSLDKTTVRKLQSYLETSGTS
HNF4A DNA FP = change in binding of human HNF4 alpha to DNA. hit rate 0.3% among 360,000. HNF4a-FITC DNA binding, fluorescence polarization, 1 h. P41235. activity change, % at 10 µM; in the data active = activity change above about 30%, passing the limit was not always enough;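 also: controls were the assay level and a saturating level of protein; the project sought stronger binding though the title names inhibitors; some compounds called inactive have numbers as strong as hits; positive values seem to mean higher polarization but the record does not say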
rRNA inh HTS = inhibits bacterial ribosomal RNA function over humanized ribosomes; E. coli WT GFP vs humanized-ribosome RFP mutants, fluorescence, 24 h; active compounds read low; DMSO median 0, no signal -100; GFP signal change (wild-type ribosome), % (concentration not given with the values); hit rate 1.6% among 350,000;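 active = significant combined selectivity score with lowered wild-type GFP, culture density cut under 30%, mutant RFP and density less affected; inactive = any of these conditions unmet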; also: one replicate is shown; some compounds called inactive have numbers as strong as hits
FGF22 binding = FGF22 (human) thermal shift binding; calls only at 9.99 µM; Q9HCT0; hit rate 1.5% among 340,000; recombinant FGF22 thermal shift, SYPRO orange fluorescence; percent of sucrose octasulfate shift, DMSO zero; AID 651658;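 active = melting point raised past a set limit in the mean and every replicate; inconclusive = no clear call; three in four hits are not shown here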
Target sequence (Q9HCT0 whole entry, looked up): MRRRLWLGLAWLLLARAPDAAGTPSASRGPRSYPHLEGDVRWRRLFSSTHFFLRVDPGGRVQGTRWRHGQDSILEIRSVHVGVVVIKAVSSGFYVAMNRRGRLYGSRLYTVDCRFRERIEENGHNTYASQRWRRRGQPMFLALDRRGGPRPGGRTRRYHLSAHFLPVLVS
rRNA inh HTS OD600 = recorded beside rRNA inh HTS, whose call it bears; OD600 change, %; measured here: OD600 growth;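 optical density of the mix in the first replicate; 0 = DMSO median and -100 = no signal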
rRNA inh HTS RFP = further read-out of rRNA inh HTS, marked with its call; RFP signal change, %; measured here: RFP humanized mutant strains;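 first replicate; 0 = DMSO median and -100 = no signal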
* hit, by the source's call; i = inactive; ? = inconclusive; . = no result given; & = joins results of further samples.

SMILES | ALR inh | Vif TR-FRET | Ecoli growth | AF4-AF9 inh | HNF4A DNA FP | rRNA inh HTS | rRNA inh HTS OD600 | rRNA inh HTS RFP | FGF22 binding
N=c1c(C(=O)NCCc2ccccc2)cc2c(=O)n3ccccc3nc2n1Cc1ccco1 | 70 | . | 0.65 | -1.9 | -2.6 | 20 | 6 | 19 | i
C[C@@H]1CN([C@@H](C)CO)C(=O)c2cc(N(C)C)ccc2O[C@@H](C)CCCCO[C@H]1CN(C)C(=O)CCCN(C)C | . | . | . | -2.7 | . | 1 | 6 | -3.9 | i
C[C@H]1CN([C@@H](C)CO)C(=O)c2cc(C#CC3(O)CCCC3)cnc2O[C@H]1CN(C)C(=O)C1CC1 | . | -1% | . | -0.8&-3.2 | -1.9 | 11&3 | 12&-1 | -1.4&-1.0 | i
COc1cccc(-c2oc3c(c2C#CC2(N)CCCCC2)C(O)CCC3)c1 (stereo not drawn) | . | . | . | 10 | 0.7 | 3 | -4 | 4.4 | i
CCCCN(C(=O)C1CCC1)c1c(N)n(CC(C)C)c(=O)[nH]c1=O | 0 | -7% | 0.66 | 0.5 | 3.1 | 6 | 4 | -1.8 | i
C[C@H]1CN([C@@H](C)CO)C(=O)c2cc(C#Cc3ccccc3)cnc2O[C@@H]1CN(C)C(=O)CN(C)C | . | . | . | 16 | . | 3 | 3 | -0.3 | i
NNC(=S)Nc1ccc(S(=O)(=O)N2CCCCC2)cc1 | 5 | 12% | 0.68 | 0.7 | -0.7 | 4 | 1 | 0.2 | i
Cc1ccc(CC(=O)Nc2cc(C)on2)cc1 | -4 | -2% | 0.69 | . | 2.5 | 21 | 13 | 5.6 | .
COc1cccc(CN(C)C(=O)C23CC4CC(CC(NC(C)=O)(C4)C2)C3)c1OC | -12 | . | 0.72 | 0.4 | 4.0 | 2 | 9 | 0.1 | i
COC(=O)C1C(=O)C(C(=O)c2ccccc2)C(=O)CC1(C)C (stereo not drawn) | -13 | . | 0.7 | -1.6 | -0.9 | 15 | 15 | -1.0 | i
COc1ccc(NC(=O)c2ccc(-c3nn(C)c(=O)c4ccccc34)cc2)cc1C(N)=O | . | -84% | 0.7 | -2.2 | 6.3 | 17 | 13 | 3.9 | i
CN(C(=O)NC1CC(=O)N(c2ccc3c(c2)OCCO3)C1)c1ccccc1 (stereo not drawn) | 0 | 9% | 0.62 | 0.5 | -0.7 | 10 | 6 | -4.9 | i
O=C(c1ccc(-n2cncn2)c([N+](=O)[O-])c1)N1CCN(S(=O)(=O)c2ccccc2Br)CC1 | -11 | 8% | 0.7 | 1.0 | -0.4 | -1 | 1 | -0.5 | i
OC(Cc1ccccc1Br)c1ncc(-c2cccc(C(F)(F)F)c2)[nH]1 (stereo not drawn) | . | . | . | 4.9 | 1.7 | -62 | -83 | -18 | i
C[C@H](CO)N1C[C@H](C)[C@H](CN(C)S(=O)(=O)c2cn(C)cn2)Oc2ncc(/C=C/c3ccccc3)cc2C1=O | . | . | . | 2.4&-3.2 | . | -1 | 3 | 0.2 | i
O=C(Nc1ccc(-c2nc3ccccc3s2)c(O)c1)C1=COCCO1 | -9 | 25% | 0.73 | . | 1.6 | . | . | . | .
COc1ccccc1C(NC(=O)C1CCN(CCOc2ccccc2)CC1)c1ccccn1 (stereo not drawn) | . | . | . | 2.1 | -1.7 | 18 | 18 | 6.5 | i
COc1ccc2oc(C(=O)N3CCN(S(=O)(=O)c4cccc([N+](=O)[O-])c4)CC3)c(C)c2c1 | -6 | . | 0.7 | 5.3 | -1.1 | -4 | 14 | -2.5 | i
COc1cccc(Nc2ccc(Nc3cccc(OC)c3)nn2)c1 | 26 | . | 0.63 | . | 0.1 | . | . | . | .
CCC(=O)N1CC2(CN(Cc3ccc(Cl)cc3)C2)c2c(n(C)c3cc(OC)ccc23)[C@@H]1CO | . | . | . | 38* | . | -54 | -79 | -9.7 | i
CCC(=O)c1ccc(OCc2ccccc2)c(OC)c1 | -22 | -28% | 0.66 | . | -3.9 | . | . | . | .
CN(Cc1c(C(=O)N/N=C/c2ccccc2F)nnn1-c1nonc1N)c1ccccc1 | -1 | . | . | -4.4 | -1.2 | 8 | 8 | 0.8 | i
CC(C)CCn1nnnc1C(c1ccccc1)N1CCN(C)CC1 (stereo not drawn) | 1 | 7% | 0.74 | . | -1.5 | . | . | . | .
C[C@@H]1CN([C@H](C)CO)C(=O)c2cccc(NC(=O)c3ccncc3)c2O[C@@H]1CN(C)Cc1ccc(C(F)(F)F)cc1 | . | . | . | -0.7 | . | -4 | 0 | 1.2 | i
Cc1noc(C)c1COc1ccccc1C(=O)N(C)CC(=O)Nc1cccc(F)c1 | -3 | -8% | 0.69 | -0.1 | 3.2 | 10 | 13 | 1.5 | i
Cc1ccc2cc(CCNS(=O)(=O)c3ccc(F)cc3)c(=O)[nH]c2c1 | -33 | 1% | 0.71 | 5.3 | -0.7 | -2 | -4 | -0.3 | i
CC(=O)N/N=C(\C)c1cccc(NC(=O)c2cccs2)c1 | -1 | 24% | . | 3.2 | 2.8 | 10 | 19 | -3.8 | i
CCN1CCC(NC(=O)Nc2cccc(C(F)(F)F)c2)CC1 | . | 31% | 0.65 | -1.9 | -0.6 | 1 | -1 | -1.5 | i
CCSc1nnc(NC(=O)Cc2ccccc2OC)s1 | -1 | -71% | 0.72 | . | -1.6 | . | . | . | .
O=C(COc1ccc(F)cc1)N1CCCc2ccccc21 | -2 | . | 0.7 | -1.1 | -0.7 | -3 | -9 | 1.2 | i
O=C(c1c[nH]c(C(=O)C(Cl)(Cl)Cl)c1)c1ccc(F)cc1F | 47 | -2% | 0.67 | 0.7 | -2.8 | -2 | 4 | 0.2 | i
COc1ccc(CCC(C)N2CCOCC2)cc1 (stereo not drawn) | . | . | 0.69 | -11 | 2.5 | 21 | 8 | 1.4 | i
CC1CCCCC12NC(=O)N(CC(=O)Nc1sc3c(c1C(N)=O)CCC3)C2=O (stereo not drawn) | 29 | 23% | . | . | -3.8 | . | . | . | .
Cc1ccc(S(=O)(=O)Oc2ccc(/C=C(/NC(=O)c3ccccc3)C(=O)NC(C)C(=O)O)cc2)cc1 (stereo not drawn) | . | -2% | 0.68 | -1.0 | 6.5 | 1 | -3 | -2.1 | i
COc1cc2c(cc1OC)C(C(=O)NCC1COc3ccccc3O1)C(c1cccnc1)N(C)C2=O (stereo not drawn) | -6 | -4% | 0.66 | . | . | . | . | . | .
Cc1ccc2nc(N3C(=O)C(O)=C(C(=O)c4cc5ccccc5o4)C3c3cccs3)sc2c1 (stereo not drawn) | 48 | 4% | . | . | 10 | . | . | . | .
O=C(CC1C(=O)NCCN1Cc1ccccc1)NCCC1=CCCCC1 (stereo not drawn) | -1 | -2% | 0.7 | -2.2 | -1.7 | 8 | -3 | 3.4 | i
Clc1cccc(Cl)c1/C=C/c1nc2ccccc2[nH]1 | 7 | 3% | 0.62 | . | -6.7 | . | . | . | .
COCC(=O)N(C)C[C@H]1[C@H](c2ccc(-c3ccccc3)cc2)[C@H](CO)N1C(C)=O | . | . | . | -2.4 | . | -2 | 0 | -1.4 | i
O=C(CN(CCc1ccccc1)S(=O)(=O)c1ccc(Cl)cc1)N/N=C/c1ccccc1C(=O)O | 0 | . | . | -2.1 | 2.9 | 3 | 4 | -2.2 | i
CC1CCC2(CC1)NC(=O)N(CC(=O)c1ccc(Cl)s1)C2=O (stereo not drawn) | 0 | . | 0.71 | -1.5 | -0.3 | 1 | 5 | 3.8 | i
C[C@@H]1CN([C@@H](C)CO)C(=O)c2cc(NC(=O)Nc3ccc(F)cc3)ccc2O[C@H]1CN(C)Cc1ccccc1 | . | . | . | -1.4 | . | -1 | 2 | 1.3 | i
O=C(NCC[C@H]1CC[C@@H](NC(=O)C2CCCC2)[C@@H](CO)O1)c1ccc(F)cc1 | . | . | . | -1.6 | . | -3 | 6 | -1.2 | i
CCN(CC)c1cc(C)c2cc(NC(=O)c3ccc(Br)o3)ccc2n1 | 1 | -4% | 0.63 | . | 7.9 | . | . | . | .
N#Cc1ccccc1OCC(=O)N1CCN(C(=O)c2ccco2)CC1 | -3 | . | 0.69 | -15 | 0.3 | -13 | -17 | 2.0 | i

Fetched by compound from above (six):
SMILES | ALR inh | Vif TR-FRET | Ecoli growth | AF4-AF9 inh | HNF4A DNA FP | rRNA inh HTS | rRNA inh HTS OD600 | rRNA inh HTS RFP | FGF22 binding
C[C@H]1CN([C@@H](C)CO)C(=O)c2cc(C#Cc3ccccc3)cnc2O[C@@H]1CN(C)C(=O)CN(C)C | . | . | . | 16 | . | 3 | 3 | -0.3 | i
CC(=O)N/N=C(\C)c1cccc(NC(=O)c2cccs2)c1 | -1 | 24% | . | 3.2 | 2.8 | 10 | 19 | -3.8 | i
CC1CCC2(CC1)NC(=O)N(CC(=O)c1ccc(Cl)s1)C2=O (stereo not drawn) | 0 | . | 0.71 | -1.5 | -0.3 | 1 | 5 | 3.8 | i
Clc1cccc(Cl)c1/C=C/c1nc2ccccc2[nH]1 | 7 | 3% | 0.62 | . | -6.7 | . | . | . | .
COc1cccc(-c2oc3c(c2C#CC2(N)CCCCC2)C(O)CCC3)c1 (stereo not drawn) | . | . | . | 10 | 0.7 | 3 | -4 | 4.4 | i
C[C@H]1CN([C@@H](C)CO)C(=O)c2cc(C#CC3(O)CCCC3)cnc2O[C@H]1CN(C)C(=O)C1CC1 | . | -1% | . | -0.8&-3.2 | -1.9 | 11&3 | 12&-1 | -1.4&-1.0 | i

Next compounds follow.
SMILES | ALR inh | Vif TR-FRET | Ecoli growth | AF4-AF9 inh | HNF4A DNA FP | rRNA inh HTS | rRNA inh HTS OD600 | rRNA inh HTS RFP | FGF22 binding
COc1ccccc1S(=O)(=O)N1CC[C@@H]2[C@@H](CO)Nc3ccc(-c4ccc(F)cc4)cc3[C@@H]21 | . | . | . | 3.4 | . | -3 | -24 | 9.1 | i
O=S(=O)(/N=C/c1ccccc1O)c1cccs1 | -4 | ? | . | . | -0.8 | . | . | . | .
CCCCNC(=O)C1(C)CCN1C(=O)c1ccc2c(c1)C(C)(C)CCC2(C)C (stereo not drawn) | . | . | . | -2.3 | 1.8 | 3 | 5 | 1.0 | i
CCOC(=O)Cn1c(CN(C)Cc2ccccc2)nc2c1c(=O)n(C)c(=O)n2C | -9 | . | 0.74 | . | 2.9 | . | . | . | .
CCOC(=O)c1c[nH]c2c(C(F)(F)F)cccc2c1=O | . | 3% | 0.69 | -1.0 | -5.1 | -5 | -8 | -2.5 | i
Cc1ccc(C(=O)COC(=O)c2ccccc2NC(=O)c2ccccc2)cc1[N+](=O)[O-] | . | 7% | 0.75 | 0.8 | -2.0 | . | . | . | i
CCC(=O)N1CCN(c2ccc(NC(=S)NC(=O)C(C)C)cc2)CC1 | 6 | -6% | 0.66 | -4.3 | 2.9 | 6 | 8 | -12 | i
COc1ccc2c3c(n(C)c2c1)[C@H](CO)N(Cc1cc(F)ccc1F)CC31CCN(C(C)=O)CC1 | . | . | . | -1.4 | . | 2 | -2 | 2.3 | i
O=C(C[C@@H]1C=C[C@H](NC(=O)NC2CCCCC2)[C@@H](CO)O1)NCc1ccccc1 | . | . | . | -0.5 | . | 5 | 3 | -1.9 | i
CCOc1ccc(OCc2ccc(C(=O)Nc3cccnc3)cc2)cc1 | 0 | -4% | 0.66 | 1.3 | 7.1 | -3 | 4 | -3.6 | i
COCCN(C(=O)CC1OC(=O)c2ccccc21)c1c(N)n(Cc2ccccc2)c(=O)[nH]c1=O (stereo not drawn) | -1 | -4% | 0.68 | 3.3 | 2.5 | 7 | 15 | -0.2 | i

Some of the compounds tested. The share of hits here may be higher or lower than overall.
